VDR inh = Inhibitors of the vitamin D receptor (VDR): qHTS; VDR-SRC2-3 peptide fluorescence polarization, 2 h; Potency, µM, inactives show max response, negative = inhibition, hits mostly inhibitors; 0.93% of 400,000 active; active = well fitted inhibition curve with a large enough effect; inconclusive = small, poorly fitted or top-dose-only effect, or another doubt; inactive = no such curve, though single readings can be large or run the other way; note: series mostly up to about 120 µM
Target sequence (P11473 whole entry, looked up): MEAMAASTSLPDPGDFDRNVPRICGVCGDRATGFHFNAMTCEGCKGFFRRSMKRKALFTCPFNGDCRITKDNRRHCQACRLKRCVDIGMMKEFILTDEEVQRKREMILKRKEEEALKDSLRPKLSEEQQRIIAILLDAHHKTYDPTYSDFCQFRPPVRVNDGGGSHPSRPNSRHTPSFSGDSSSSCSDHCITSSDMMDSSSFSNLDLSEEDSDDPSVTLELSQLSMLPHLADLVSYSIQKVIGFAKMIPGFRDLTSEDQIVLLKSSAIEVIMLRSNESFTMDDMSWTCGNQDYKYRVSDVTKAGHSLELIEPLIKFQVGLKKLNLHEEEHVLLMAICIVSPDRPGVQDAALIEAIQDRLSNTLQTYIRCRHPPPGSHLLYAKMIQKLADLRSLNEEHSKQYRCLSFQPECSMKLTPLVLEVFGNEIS
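VDR–SRC2-3 interaction, FP format. Cmpds 23 nl via pintool, brief spin, 2 h ambient incubation.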
* hit, by the source's call; ? = inconclusive; & = joins results of further samples; [ ] = remark or other dose. % is set by controls: 0 for no effect and ±100 for the full control effect; potency is the fitted concentration of half-maximal effect.

VDR inh | mol
-6% | Cc1ccc(-c2ccc(/C=N/NC(=O)Cc3nnc(N)s3)o2)cc1Cl
-12% | CCCCNC(=O)c1c(O)c2cccc3c2n(c1=O)CCC3
19% | CC(=O)c1cccc(NC(=O)C(C)n2c(=O)cc(-c3ccccc3)c3c(C)nn(C)c32)c1 (stereo unspecified)
-5% | NC(=O)c1ccc(C(F)(F)F)n(Cc2ccc(F)c(F)c2)c1=O
-18% | CCn1cc2nc(SCC(=O)Nc3cc(OC)ccc3OC)n(Cc3ccc(Cl)cc3)c(=O)c2n1
2% | CCCC(=O)Nc1cccc(NC(=O)CN2CCN(c3ccccc3OC)CC2)c1
-11% | O=C(CSc1nc2ccccc2s1)Nc1ccc(C(=O)O)cc1
-14% | Cc1ccc(NS(=O)(=O)c2c(C(=O)N3CCCCCC3)c(C)n(C)c2C)c(C)c1
-8% | O=C(O)COn1c(-c2ccccc2)nc2ccc(Cl)cc21
-13% | COc1cccc(C(C(=O)NCC2CCCO2)N(CC2CCCO2)C(=O)CN2C(=O)c3ccccc3S2(=O)=O)c1 (stereo unspecified)
-2% | O=C(Cn1cnc2c(nnn2-c2ccc(F)cc2)c1=O)N1CCCc2ccccc21
-13% | Cc1cccc(NC(=S)N2CCCCC2c2cccnc2)c1C (stereo unspecified)
-1% | CC(=O)Nc1ccc(C(=O)OCC(=O)NC2CCCCCCC2)cc1
17% | O=[N+]([O-])c1cccc(-c2nc3ccccc3s/c2=N/O)c1
12% | CN(C)c1ccc(C(=O)Nc2cc(C(F)(F)F)ccc2-n2cncn2)cc1
-8% | CCOC(=O)N1CCN(C(=O)CCc2ccc(S(=O)(=O)NC(C)(C)C)cc2)CC1
4% | O=C(NCC(c1cccnc1)N1CCOCC1)c1ccco1 (stereo unspecified)
-18% | COCCn1c(C)cc(/C=C2/NC(=O)N(c3cccc(Cl)c3)C2=O)c1C
10% | O=C1CN(C(=O)COc2ccc(Cl)cc2)C(c2ccc(F)cc2)c2cc(Br)ccc2N1 (stereo unspecified)
5% | Cc1nn2c(NCCCN3CCOCC3)c3c(nc2c1-c1ccccc1)CCC3
-9% | Brc1ccccc1OCCOc1cccc2cccnc12
-17% | Cc1nc2ccccc2c(C)c1C(=O)c1ccccc1
-21% | Cc1ccc(NC(=O)COC(=O)C2CC3C=CC2C3)cc1S(=O)(=O)N1CCCCC1 (stereo unspecified)
-3% | Cc1ccc2nc(SCC(=O)c3c(C)[nH]c4ccccc34)[nH]c2c1
3% | CCC(CO)NC1=CC(=O)CCC1 (stereo unspecified)
-16% | Cc1cc(Cl)ccc1OCC(=O)Nc1nc(-c2cccnc2)cs1
0% | COc1cccc(C(C(=O)NCC2CCCO2)N(C(=O)Cn2nnc3ccccc32)c2ccccc2C(C)=O)c1OC (stereo unspecified)
-12% | COc1ccc(CNC(=S)N2CCN(S(=O)(=O)c3cccc(F)c3)CC2)cc1
10% | Cc1nnc(SCc2cc(=O)n3cccc(C)c3n2)s1
8% | COc1ccc(C2c3c(n(C)c4ccccc34)C(=O)N2CC(=O)Nc2cc(Cl)ccc2C)cc1 (stereo unspecified)
14% | COc1ccc(S(=O)(=O)N2Cc3ccccc3CC2C(=O)Nc2ccc(C)cc2)cc1OC (stereo unspecified)
12% | CCOC(=O)N1CCN(C(=O)CCCn2c(=S)[nH]c3ccsc3c2=O)CC1
12% | CCN(CC)C(=O)CCSc1nnc(-c2ccncc2)o1
1% | Cn1c(=O)[nH]c(=O)c2c1nc(Br)n2Cc1ccccc1F
7% | COc1ccc(OC)c(N2C(N)=C(C#N)C(c3ccc(OC)c(O)c3)C3=C2CC(C)(C)CC3=O)c1 (stereo unspecified)
1% | CCOc1ccc(CNS(=O)(=O)c2cc3c(cc2C)NC(=O)CO3)cc1OC
-17% | O=C(Oc1ccc2ccccc2c1Br)N1CCCCCC1
-20% | COc1ccc(-n2nc(N)c(C(N)=O)n2)cc1
16% | Cc1ccc(C(=O)COC(=O)C2CC(=O)N(c3nc(-c4ccccc4)cs3)C2)cc1 (stereo unspecified)
2% | COc1ccc(C)cc1NC(=O)CN1CCN(c2ccccc2F)CC1
-7% | COc1cc(-c2nc3ccccn3c2/N=C/c2cc(OC)c(OC)c(OC)c2)ccc1O
1% | O=C1c2oc3ccccc3c(=O)c2C(c2cccnc2)N1Cc1ccco1 (stereo unspecified)
-9% | Cc1cc(C)cc(OCC(=O)N(Cc2ccco2)c2c(N)n(Cc3ccccc3)c(=O)[nH]c2=O)c1
-19% | NC(=O)c1c(NC(NC(=O)c2ccco2)C(=O)c2ccc(Cl)cc2)sc2c1CCCC2 (stereo unspecified)
-1% | COc1ccccc1N1CCN(C(=O)C2CCN(C(=O)c3ccccc3Cl)CC2)CC1
3% | CCC1(CC)N([O-])C(C)=C(c2ccccc2)[N+]1=O
-3% | CC1(C)CC(=O)N(c2ccc(Cl)c(Cl)c2)C(=O)C1
-6% | Cc1ccc(-c2nnc(-c3cc(C)on3)o2)cc1

Given as tab-separated lines: entries from further up
smiles	VDR inh
CCN(CC)C(=O)CCSc1nnc(-c2ccncc2)o1	12%
Cn1c(=O)[nH]c(=O)c2c1nc(Br)n2Cc1ccccc1F	1%

The list goes on.
VDR inh | mol
-8% | CC(=O)N1C(c2ccccc2O)C[C@]2(C)CC(=O)NC12 (stereo partly specified)
-7% | Cn1ccnc1SCC(=O)c1ccc(Cl)cc1
-20% | Cn1c(/C=C(\C#N)C(N)=S)ccc1-c1ccc(Br)cc1
-3% | COc1ccc(CNn2c(C)nc3ccccc3c2=O)cc1
-2% | O=C(CSc1nnnn1Cc1ccccc1)Nc1ccccc1
-9% | Cc1nc2c(C)cccn2c1/C(O)=C1\C(=O)C(=O)N(CCN(C)C)C1c1ccco1 (stereo unspecified)
14% | Cc1cc(C(=O)N2CCCC(N3CCN(c4ccccc4C)CC3)C2)n(C)n1 (stereo unspecified)
-3% | CCOC(=O)CCCNC(=O)CCNC(=O)c1ccc(OC(C)C)cc1
-7% | COC(=O)/C(=C/c1ccc2c(c1)c1ccccc1n2C)NC(=O)c1ccccc1
-1% | CC(C)c1ccc(N(C(=O)c2csnn2)C(C(=O)NC2CCCC2)c2ccncc2)cc1 (stereo unspecified)
-15% | COc1ccc(N(C(=O)Cn2nnc(-c3ccc(F)cc3)n2)C(C)C(=O)NC2CCCC2)cc1OC (stereo unspecified)
15% | COc1ccc2cc(CN(Cc3ccco3)Cc3nnnn3C3CCCCC3)c(=O)[nH]c2c1

Part of the list above, with bars between the fields.
smiles | VDR inh
COc1cc(-c2nc3ccccn3c2/N=C/c2cc(OC)c(OC)c(OC)c2)ccc1O | -7%
O=C1c2oc3ccccc3c(=O)c2C(c2cccnc2)N1Cc1ccco1 (stereo unspecified) | 1%
Cc1cc(C)cc(OCC(=O)N(Cc2ccco2)c2c(N)n(Cc3ccccc3)c(=O)[nH]c2=O)c1 | -9%
NC(=O)c1c(NC(NC(=O)c2ccco2)C(=O)c2ccc(Cl)cc2)sc2c1CCCC2 (stereo unspecified) | -19%
COc1ccccc1N1CCN(C(=O)C2CCN(C(=O)c3ccccc3Cl)CC2)CC1 | -1%
CCC1(CC)N([O-])C(C)=C(c2ccccc2)[N+]1=O | 3%
CC1(C)CC(=O)N(c2ccc(Cl)c(Cl)c2)C(=O)C1 | -3%
Cc1ccc(-c2nnc(-c3cc(C)on3)o2)cc1 | -6%
CC(=O)N1C(c2ccccc2O)C[C@]2(C)CC(=O)NC12 (stereo partly specified) | -8%
Cn1ccnc1SCC(=O)c1ccc(Cl)cc1 | -7%
Cn1c(/C=C(\C#N)C(N)=S)ccc1-c1ccc(Br)cc1 | -20%
COc1ccc(CNn2c(C)nc3ccccc3c2=O)cc1 | -3%
O=C(CSc1nnnn1Cc1ccccc1)Nc1ccccc1 | -2%
Cc1nc2c(C)cccn2c1/C(O)=C1\C(=O)C(=O)N(CCN(C)C)C1c1ccco1 (stereo unspecified) | -9%
Cc1cc(C(=O)N2CCCC(N3CCN(c4ccccc4C)CC3)C2)n(C)n1 (stereo unspecified) | 14%
CCOC(=O)CCCNC(=O)CCNC(=O)c1ccc(OC(C)C)cc1 | -3%
COC(=O)/C(=C/c1ccc2c(c1)c1ccccc1n2C)NC(=O)c1ccccc1 | -7%

The listing continues.
VDR inh | mol
13% | CS(C)(=O)=NS(=O)(=O)c1ccc(Cl)cc1
2% | CCOC(=O)CN1C(=O)CN(c2ccc(C)cc2)C1=O
-6% | CCCn1nc(C(=O)Nc2ccc(S(=O)(=O)Nc3nccs3)cc2)c2ccccc2c1=O
-11%&-10% | COc1cc(OC)cc(C(=O)Nc2ccc(S(=O)(=O)Nc3ncccn3)cc2)c1
12% | Cn1c(-c2c(N)n(C3CCCC3)c3nc4ccccc4nc23)nc2ccccc21
2% | CC(C)(C)N(Cc1ccccc1)C(=O)c1cccs1
-2% | O=S(=O)(c1ccc(Cl)cc1)N1c2ccccc2Oc2nc3ccccc3nc21
40µM* | CCOC(=O)C1CCN(S(=O)(=O)c2ccc(CC)cc2)CC1
-6% | CCOc1ccccc1NC(=O)CN1C(=O)COc2ccc(S(=O)(=O)N3CCCCCC3)cc21
-5% | O=C(CSc1nc2[nH]ncc2c(=O)[nH]1)c1ccccc1
7% | CCOC(=O)c1[nH]c2ccccc2c1NC(=O)NC(C)C
1% | Cc1ccc(NC(=O)c2cccc(S(=O)(=O)N3CCN(C)CC3)c2)cc1F
18% | O=C(NCC1CCCO1)c1cnn2c(C(F)F)cc(C3CC3)nc12 (stereo unspecified)
9% | COc1cc(OC)c(OC)cc1/C=N/n1c(C)nnc1C
? | O=C(c1ccco1)N1CCN(CCOc2ccc(F)cc2)CC1
7% | O=C(CC1SC(=Nc2ccccc2)N(CCO)C1=O)Nc1ccccc1 (stereo unspecified)
-20% | Cc1ccc(C)c(S(=O)(=O)N(C)Cc2cccs2)c1
-2% | CCSc1n[nH]c2nc3c(c(=O)n12)C1(CCCC1)Cc1ccccc1-3
5% | O=C(c1cccc(F)c1)n1nnc2ccccc21
11% | NC(=O)c1ccc([N+](=O)[O-])cc1SCc1ccccc1
-13% | CCC(CC)C(=O)c1c[nH]c(C(=O)NCc2ccncc2)c1
? | Fc1ccccc1-c1[nH]ncc1-c1nnnn1-c1ccccc1
34%[activator] | CCN(CC(=O)Nc1ccc(NC(C)=O)cc1)C(=O)CN1C(=O)C2CCCCC2C1=O (stereo unspecified)
-7% | COc1ccc(-c2noc(-c3cccc(OC)c3OC)n2)cc1
-15% | COc1ccc(CN2CCC(Oc3ccc(C(=O)N4CCCCC4)cc3)CC2)cc1C
-26% | CCCn1c(=O)c2ccccc2n2c(SCC(=O)NCc3cccs3)nnc12
-12% | CCc1cccc(NS(=O)(=O)c2ccc3c(c2)n(C)c(=O)n3C)c1
-7%&6% | O=C1OCCN1C(=O)[C@H]1[C@H](c2ccc([N+](=O)[O-])cc2)C(c2ccccc2)=NN1c1ccc(Br)cc1
-10% | CCc1ccc(-c2nc(SCC(=O)N(CC)C3CCS(=O)(=O)C3)n[nH]2)cc1 (stereo unspecified)
-8% | Cc1ccc(-c2csc(NC(=O)c3ccc(Br)cc3)c2C(=O)O)cc1
17%&2% | Cc1ccc(-n2c(=O)c3c4c(sc3n(Cc3cc(=O)n5ccccc5n3)c2=O)CCC4)cc1C
22% | O=C(NCc1ccc(F)cc1)N1CCN(S(=O)(=O)c2ccccc2F)CC1
-9% | Cc1ccccc1S(=O)(=O)Nc1nc2ccccc2nc1N1CCc2ccccc2C1
10% | Cc1cc(Cl)ccc1OCCNC(=S)NC(=O)c1cccnc1
-15% | O=C(Nc1ccccc1)c1ccc(S(=O)(=O)N2CCCCC2)cc1
8% | COc1cc(/C=N/Nc2ccc(Cl)c(C(=O)O)c2)ccc1OC(=O)c1ccco1
-13% | CCN(CC)c1ccc(C(=O)OCC(=O)NC2CCCCC2C)cc1 (stereo unspecified)
-11% | CNC(=O)CC(C(=O)O)c1ccc(OCC(C)C)cc1 (stereo unspecified)
1% | CCCCOC(=O)c1ccc(NC(=O)CC2NCCNC2=O)cc1 (stereo unspecified)
79µM* | Fc1ccc(-c2csc(=S)[nH]2)cc1
? | CCOC(=O)c1sc(NC(=O)/C=C/c2cnn(CC)c2C)c(C(=O)OCC)c1C
-22% | CN1CCN(c2ncc3nc(-c4cccc(C#N)c4)c(=O)n(C[C@H]4CCCO4)c3n2)CC1
-21% | Cc1cc(-c2nc3ccccc3s2)ccc1NC(=O)c1cc(Cl)ccc1Cl
22% | Cc1ccc(OCCC(=O)OCC(=O)Nc2cc(C)nn2-c2ccccc2)cc1
15% | CCN(Cc1ccncc1)C(=O)CSc1ccc2ccccc2c1
-18% | O=C(COC(=O)c1cc2ccccc2o1)NCc1ccco1
-16% | CCOc1ccc(NC(=O)CN(C)Cc2cc(=O)n3c(-c4ccccc4)csc3n2)cc1OCC
-10% | COc1ccc(C2C(C(=O)Nc3ccc4c(c3)OCCO4)c3ccccc3C(=O)N2C)cc1 (stereo unspecified)
-22% | COc1ccc(-c2cc(C#N)nc(Oc3ccc(Cl)cc3)n2)cc1
2% | CCc1nnc(NC(=O)C(NS(=O)(=O)c2ccc3c(c2)OCCO3)C(C)C)s1 (stereo unspecified)
11% | CCOC(=O)CC(NC(=O)c1cc2c(=O)n3cccc(C)c3nc2s1)c1ccc(OCC(C)C)c(OC)c1 (stereo unspecified)
-14% | O=C1OC(Cc2ccccn2)C(=O)C1=C1SCCS1 (stereo unspecified)
2% | O=C(c1cccc(S(=O)(=O)N2CCc3ccccc32)c1)N1CCc2ccccc2C1
6% | Cc1cccc(NC(=S)NC2CC3C=CC2C3)c1 (stereo unspecified)
-1% | COCc1cc(C)nc(SCC(=O)NC2CCCCC2C)c1C#N (stereo unspecified)
-1% | Cc1ccc(O)c(-c2cc(-c3ccccc3C)[nH]n2)c1
-3% | C=CCn1cc(C(=O)OCC)c(=O)c2cc(F)c(F)cc21
8% | CCOc1ccc(NC(=O)CSc2nnc(-c3ccncc3)n2-c2ccccc2)cc1
-10% | O=c1[nH]c(CN2CCN(c3ccccc3O)CC2)nc2scc(-c3ccccc3Cl)c12
12% | CCOC(=O)C(CC)n1cnc2c(nnn2-c2ccc(F)cc2)c1=O (stereo unspecified)
4% | CC1(C)COC(c2ccccc2Cl)OC1
3% | CCCc1nnc(NC(=O)Cc2coc3cc(C)cc(C)c23)s1
9% | Clc1ccc(-c2onc3c2CCCC3)cc1

Assay outcomes (PubChem BioAssay)

Not all compounds are listed; rates above refer to the full screens.
